Ecoli rRNA inh: inhibits bacterial ribosomal RNA function over humanized ribosomes | E. coli WT GFP vs humanized-ribosome RFP mutants, fluorescence, 24 h; active compounds read low; DMSO median 0, no signal -100 | GFP signal change (wild-type ribosome), % (no concentration beside the values) | actives 1.6% (n = 350,000) | AID 720706;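 active = significant combined selectivity score with lowered wild-type GFP, culture density cut under 30%, mutant RFP and density less affected; inactive = any of these conditions unmet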; note: one replicate is shown; some compounds called inactive have numbers as strong as hits
B2AR ag: human beta-2 adrenergic receptor agonism by FAP. Am2.2-beta2AR cells, FAP receptor internalization, flow cytometry; reference of the scale not given here. response, % (no concentration beside the values). actives 0.43% (n = 340,000);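 active = response above a set limit, near 3 SD of response in nonfluorescent compounds, cut at about 42% in these data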;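 note: stock transfer was 100 nL into about 11 µL; a reference agonist was the positive control; negative values mostly stem from fluorescent compounds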
FGF22 binding: FGF22 (human) thermal shift binding; Q9HCT0; recombinant FGF22 thermal shift, SYPRO orange fluorescence; percent of sucrose octasulfate shift, DMSO zero; calls only at 9.99 µM; actives 1.5% (n = 340,000); AID 651658;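 active = melting point raised past a set limit in the mean and every replicate; three in four hits are not shown here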
Target sequence (Q9HCT0 whole entry, looked up): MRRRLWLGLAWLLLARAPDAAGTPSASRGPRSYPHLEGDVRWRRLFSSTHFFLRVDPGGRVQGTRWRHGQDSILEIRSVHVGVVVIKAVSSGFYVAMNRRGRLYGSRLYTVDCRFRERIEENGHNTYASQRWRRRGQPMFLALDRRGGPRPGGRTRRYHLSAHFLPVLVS
E coli growth: inhibitors of Escherichia coli growth; OD600, 23 h; active compounds read low; OD600 absorbance (concentration not given with the values); actives 0.21% (n = 330,000); AID 1053175;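 active = OD600 absorbance below the run mean of sample wells minus 3.6 SD, in any replicate, cut at about 0.56 in these data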;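 note: stock transfer was 300 nL into about 60 µL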
ALR inh: human ALR oxidase inhibition via reduced H2O2; purified ALR, DTT oxidation, H2O2 HRP-luminol luminescence; inhibition, % (no concentration beside the values); actives 3.8% (n = 290,000); AID 485317;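 active = mean and each replicate at 75% or more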;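 note: stock transfer was 7.5 nL into about 7.5 µL; 0% = neutral wells and 100% = wells with inactivated enzyme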
UCH37 DUB inh: inhibitors of human deubiquitinating enzyme UCH37. Q9Y5K5. purified proteasome/UCH37, Ub-AMC cleavage fluorescence. inhibition, % (no concentration beside the values). actives 0.33% (n = 330,000). AID 588478;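 active = mean of two replicates above 20%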;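 note: 0% = compound-free wells with enzyme and 100% = wells lacking proteasome; stock transfer was 100 nL into about 20 µL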
Target sequence (Q9Y5K5 whole entry, looked up): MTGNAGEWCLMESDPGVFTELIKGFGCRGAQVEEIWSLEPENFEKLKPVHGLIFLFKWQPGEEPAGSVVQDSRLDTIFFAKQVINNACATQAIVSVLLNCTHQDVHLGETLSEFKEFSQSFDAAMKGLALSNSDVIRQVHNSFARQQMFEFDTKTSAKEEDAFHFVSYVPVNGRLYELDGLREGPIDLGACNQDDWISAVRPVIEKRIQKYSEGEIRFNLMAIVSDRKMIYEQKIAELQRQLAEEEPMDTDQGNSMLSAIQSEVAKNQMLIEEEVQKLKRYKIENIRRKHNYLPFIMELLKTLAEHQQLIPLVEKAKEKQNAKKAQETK
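Material: human UCH37 enzyme supplied as purified proteasome complex. Measure: % inhibition of Ub-AMC cleavage fluorescence. Medium: pH 7.4 Tris-HCl (50 mM) with ovalbumin, ATP-MgCl2, DTT. Times: 30 min preincubation with enzyme, 25 min cleavage at room temperature. Detection: AMC fluorescence intensity at 355/460 nm.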
HNF4A DNA FP: change in binding of human HNF4 alpha to DNA. P41235. HNF4a-FITC DNA binding, fluorescence polarization, 1 h. activity change, % at 10 µM. actives 0.3% (n = 360,000). AID 1224865; in the data active = activity change above about 30%, passing the limit was not always enough;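 note: controls were the assay level and a saturating level of protein; the project sought stronger binding though the title names inhibitors; some compounds called inactive have numbers as strong as hits; positive values seem to mean higher polarization but the record does not say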
Target sequence (P41235 whole entry, looked up): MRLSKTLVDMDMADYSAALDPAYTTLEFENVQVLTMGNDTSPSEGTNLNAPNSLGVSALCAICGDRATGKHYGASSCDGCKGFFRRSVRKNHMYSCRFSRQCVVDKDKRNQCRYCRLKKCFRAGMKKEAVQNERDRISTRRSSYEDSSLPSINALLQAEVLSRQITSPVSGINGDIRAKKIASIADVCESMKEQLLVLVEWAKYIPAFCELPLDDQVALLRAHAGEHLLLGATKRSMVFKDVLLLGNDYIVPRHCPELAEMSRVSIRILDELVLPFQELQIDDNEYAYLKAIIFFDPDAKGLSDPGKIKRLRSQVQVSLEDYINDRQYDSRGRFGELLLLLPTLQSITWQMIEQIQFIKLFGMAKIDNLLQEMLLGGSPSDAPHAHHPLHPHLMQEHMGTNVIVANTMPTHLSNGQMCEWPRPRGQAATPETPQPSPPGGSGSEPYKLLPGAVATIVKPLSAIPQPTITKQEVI
Ecoli rRNA inh OD600: also measured in Ecoli rRNA inh; calls as there; OD600 change, %; measured here: OD600 growth;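 optical density of the mix in the first replicate; 0 = DMSO median and -100 = no signal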
Ecoli rRNA inh RFP: further read-out of Ecoli rRNA inh, marked with its call; RFP signal change, %; measured here: RFP humanized mutant strains;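 first replicate; 0 = DMSO median and -100 = no signal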
Numbers without * were called inactive; i = inactive; . = not tested or not shown; + = active, no number. An excerpt; rates above refer to the full screens.

SMILES	Ecoli rRNA inh	Ecoli rRNA inh OD600	Ecoli rRNA inh RFP	B2AR ag	FGF22 binding	E coli growth	ALR inh	UCH37 DUB inh	HNF4A DNA FP
NC(=O)c1ccc(NC(=O)COc2coc(CN3CCc4ccccc4C3)cc2=O)cc1	-4	-3	-0.5	-1	i	0.7	1	-1.6	-3.0
C=CCNC(=O)c1onc(CSc2cccc(OC)c2)c1C(=O)O	6	-6	11	-4	i	0.67	26	0.6	-3.5
O=C(c1ccco1)N1CCN(c2cc(C(F)(F)F)nc3ncnn23)CC1	.	.	.	-7	.	0.64	-12	9.6	3.1
COc1ccccc1NS(=O)(=O)c1cc(NC(=O)Cn2cnc3c2c(=O)n(C)c(=O)n3C)ccc1C	9	7	-1.4	0	i	0.64	-2	2.9	-2.6
NC(=O)c1ccc(NC(=O)Cc2cccs2)cc1	13	2	3.0	-3	i	0.69	-14	3.9	1.3
COc1cc(NC(=O)C2CCCCC2)c(OC)cc1NC(=O)CCC(=O)NCc1ccco1	7	13	0.6	-2	.	0.72	-17	4.1	-1.2
CCOc1ccc(N=C2NC(=O)C(CC(=O)Nc3ccccc3)S2)cc1 (stereo not drawn)	0	12	5.3	-12	i	0.68	-16	2.1	-0.7
BrC(=C\c1ccccc1)/C=N/n1cnnc1	8	13	4.5	1	i	.	.	.	4.1
Cc1ccc(C(=O)N2CC(C(=O)O)C2)cc1	4	3	-0.5	-5	i	0.66	6	4.2	1.1
O=C(O)c1cc(-n2nnnc2SCc2ccc([N+](=O)[O-])cc2)ccc1Cl	-2	10	-9.8	-6	i	0.68	35	2.5	-2.7
COc1cccc(C(=O)NCC(c2cccs2)N2CCc3ccccc32)c1 (stereo not drawn)	-14	-11	-3.6	7	i	0.6	52	2.6	0.8
CC(NC(=O)c1sc2ccccc2c1Cl)C1CCCO1 (stereo not drawn)	.	.	.	-5	.	0.68	-7	5.7	1.8
CN1CCN(c2ccc(NC(=O)c3ccccc3)cc2)CC1	13	7	-3.2	-6	i	0.69	.	6.8	-4.9
COC(=O)c1cc(OC)c(OC)cc1NC(=O)Nc1ccc(OC)cc1	.	.	.	5	.	0.8	-5	-14	2.6
O=C(CCCc1ccccc1)N1CCN(C2CCCCC2)CC1	1	6	0.0	-16	i	0.69	-4	1.5	-1.1
COC1=C(OC)c2ccccc2C(C(=O)O)N/C1=C(/C)Nc1ccncc1 (stereo not drawn)	.	.	.	0	.	0.75	-11	4.4	5.4
CCN1C(=O)[C@@H]2[C@@H](c3ccc(-c4ccc(C(C)=O)cc4)c(OC)c3)N3CCCC[C@@]3(C(=O)OC)[C@@H]2C1=O	9	7	8.8	8	i	.	1	1.9	-1.6
COc1cc(C(=O)NCc2ccc3c(c2)cc(C)n3C)cc(OC)c1OC	0	-2	64	11	i	0.7	-8	5.7	-2.4
CC(=O)N(C)c1ccc(NS(=O)(=O)Cc2ccccc2)cc1	.	.	.	0	.	0.68	-8	3.4	1.9
CS(=O)(=O)c1cccc(C(=O)OCC(=O)c2ccc3c(c2)OCCO3)c1	-3	-3	-0.4	2	i	0.67	.	-1.4	4.8
Cn1c(=O)c2c(nc(SCc3ccc(C(=O)O)cc3)n2C)n(C)c1=O	-1	0	1.0	-3	i	0.67	-4	0.6	0.8
CCOc1ccc(NC(=S)N2CCN(S(=O)(=O)c3ccc(C)cc3)CC2)cc1	-6	-13	2.5	-5	i	0.73	-17	1.5	2.0
COc1ccc(/C(N)=N/OC(=O)Cc2ccccc2OC)cc1	.	.	.	-10	.	0.67	-2	3.2	-2.6
O=c1cc(-c2ccccc2Cl)oc2c(NS(=O)(=O)c3cccs3)ccc(O)c12	-14	-40	-21	2	i	0.7	-3	0.5	-8.5
CC1CCCC(NC(=O)CSc2n[nH]c(=O)n2Cc2ccccc2)C1C (stereo not drawn)	4	-6	4.9	.	i	0.66	-11	2.3	-1.5
CC(C)(C)c1ccc(OC(=O)CN2C(=O)C3C4CCC(C4)C3C2=O)cc1 (stereo not drawn)	.	.	.	-6	i	0.7	.	1.0	2.9
CCC(C)N1CCNCC1 (stereo not drawn)	2	5	-0.7	1	i	0.7	0	2.6	-4.4
O=C(N/N=C/c1ccc(OC(=O)c2cccs2)cc1)c1ccccn1	14	23	1.0	-2	i	.	-10	.	1.2
CCc1cc(-c2n[nH]c(C)c2-c2ccccc2Cl)c(O)cc1OC	-11	-26	-11	11	i	0.63	1	3.1	1.3
CCOc1cc(-c2cc(-c3ccc(C)o3)nc(N)c2C#N)ccc1O	.	.	.	1	.	0.66	80*	-133	-1.4
Cn1c(=O)n(C)c2cc(/C=C3/NC(=O)N(Cc4ccccc4)C3=O)ccc21	.	.	.	-4	.	0.73	2	-190	7.0
Cc1c(NC(=O)/C(C#N)=C/c2ccc(-c3ccc(Cl)cc3)o2)c(=O)n(-c2ccccc2)n1C	.	.	.	4	.	0.66	4	8.5	-1.6
CCOc1ccc(-c2nc(CCl)cs2)cc1OC	1	-5	-3.5	7	i	.	99*	.	2.5
O=c1cc(CN2CCN(c3ccccc3)CC2)nc2scc(-c3ccccc3)n12	-16	-11	-0.7	2	i	0.69	-15	2.8	1.7
Cc1ccc(N=C(NO)c2cnccc2C(F)(F)F)c(C)c1	4	1	-0.1	-4	i	0.68	.	4.5	1.5
O=C(CSc1nnc(-c2ccco2)o1)NCCc1ccccc1	4	0	3.5	1	i	0.71	-1	-3.5	-0.8
S=c1[nH]c2cc3ccccc3cc2[nH]1	0	8	-6.3	9	+	0.69	.	4.0	3.0
Cc1ccc2[nH]c(=O)c(-c3nc4ccccn4c3NCc3ccco3)cc2c1	.	.	.	-5	.	0.69	-2	3.9	0.9
C/C(=N\NC(=O)C1CC1)c1ccc(Cl)c(Cl)c1	.	.	.	-7	.	.	-5	.	-1.9
Brc1cccc(-c2nc(-c3ccncc3)no2)c1	.	.	.	-3	.	0.75	-4	6.1	0.0
O=C(c1ccc(C(F)(F)F)cc1)C1CCCN(C(=O)c2csnn2)C1 (stereo not drawn)	-2	1	2.7	16	i	0.7	.	-0.2	-1.7
COc1ccc(CC(NC(C)=O)C(=O)NC2CCN(C(=O)c3cc(OC)c(OC)c(OC)c3)CC2)cc1 (stereo not drawn)	7	7	-0.8	-14	i	0.71	-5	1.5	-3.5
COc1ccccc1NS(=O)(=O)c1ccc2oc(=S)[nH]c2c1	-7	-1	5.2	1	i	0.7	64	5.0	0.5
Cn1ncc(Br)c1NC(=O)c1ccco1	.	.	.	-3	.	0.7	2	-1.0	-1.5
N#Cc1nc(-c2ccccc2)oc1NCCN1CCCCC1	.	.	.	7	.	0.7	.	-195	4.4
CCOC(=O)c1cc(-c2ccccc2)n(CC(=O)NC(C)(C)C)c1C	-13	-15	34	-11	i	0.67	-4	0.3	0.4
CC(C)CCNC(=O)CN(C(=O)Cn1nnc(-c2ccc(F)cc2)n1)C1CCCC1	.	.	.	-4	.	0.7	-5	0.2	1.4
CC1=CC(=C(C#N)C#N)C=C(C)N1Cc1ccccc1	9	6	-0.9	3	i	0.68	-1	5.2	3.6

5 of these compounds, set out differently.
mol | Ecoli rRNA inh | Ecoli rRNA inh OD600 | Ecoli rRNA inh RFP | B2AR ag | FGF22 binding | E coli growth | ALR inh | UCH37 DUB inh | HNF4A DNA FP
Brc1cccc(-c2nc(-c3ccncc3)no2)c1 | . | . | . | -3 | . | 0.75 | -4 | 6.1 | 0.0
N#Cc1nc(-c2ccccc2)oc1NCCN1CCCCC1 | . | . | . | 7 | . | 0.7 | . | -195 | 4.4
COc1ccc(CC(NC(C)=O)C(=O)NC2CCN(C(=O)c3cc(OC)c(OC)c(OC)c3)CC2)cc1 (stereo not drawn) | 7 | 7 | -0.8 | -14 | i | 0.71 | -5 | 1.5 | -3.5
CCOC(=O)c1cc(-c2ccccc2)n(CC(=O)NC(C)(C)C)c1C | -13 | -15 | 34 | -11 | i | 0.67 | -4 | 0.3 | 0.4
S=c1[nH]c2cc3ccccc3cc2[nH]1 | 0 | 8 | -6.3 | 9 | + | 0.69 | . | 4.0 | 3.0

Compound profiles, as listed above. Values in the order: Ecoli rRNA inh | Ecoli rRNA inh OD600 | Ecoli rRNA inh RFP | B2AR ag | FGF22 binding | E coli growth | ALR inh | UCH37 DUB inh | HNF4A DNA FP
Profile of CC(C)CCNC(=O)CN(C(=O)Cn1nnc(-c2ccc(F)cc2)n1)C1CCCC1 : . | . | . | -4 | . | 0.7 | -5 | 0.2 | 1.4
Profile of S=c1[nH]c2cc3ccccc3cc2[nH]1 : 0 | 8 | -6.3 | 9 | + | 0.69 | . | 4.0 | 3.0

Continued:
SMILES	Ecoli rRNA inh	Ecoli rRNA inh OD600	Ecoli rRNA inh RFP	B2AR ag	FGF22 binding	E coli growth	ALR inh	UCH37 DUB inh	HNF4A DNA FP
CC(=O)Nc1c(C)ccc(S(N)(=O)=O)c1C	6	3	1.0	-2	i	.	3	.	1.0
Cn1ncc(Cl)c1C(=O)N1CCN(S(=O)(=O)c2cccs2)CC1	5	0	0.7	0	i	0.69	-1	1.8	0.7
Cc1ccc(S(=O)(=O)N2CCCCC2)cc1C(=O)NCc1ccc(S(N)(=O)=O)cc1	9	4	2.0	-3	i	0.66	.	1.2	-3.8
COc1cc(OC)cc(-c2cc(N)n(S(=O)(=O)c3cccc4nsnc34)n2)c1	-17	-6	12	1	i	0.72	-9	2.4	-2.6
O=C(Nc1ccccc1Cl)N1CCN(c2ccc3nnc(-c4ccc(F)cc4)n3n2)CC1	.	.	.	1	.	0.66	-19	1.5	1.5
CC[C@H](C)C(=O)N[C@H]1CCCN1C(=O)/C=C/c1ccccc1	1	0	-17	5	i	0.82	-1	0.4	-2.0
Cc1cccc(C)c1NC(=O)C(c1ccccc1)n1c(=O)c(-c2cc3ccccc3[nH]2)nc2ccccc21 (stereo not drawn)	12	8	3.0	.	i	.	.	.	3.1

Looked up above:
COc1cc(OC)cc(-c2cc(N)n(S(=O)(=O)c3cccc4nsnc34)n2)c1 in B2AR ag → 1
O=C(Nc1ccccc1Cl)N1CCN(c2ccc3nnc(-c4ccc(F)cc4)n3n2)CC1 in B2AR ag → 1

Screening results deposited in PubChem BioAssay by several laboratories.
